# Source: PubChem BioAssay
# Sfp inh = Sfp phosphopantetheinyl transferase inhibition. Q9F4F7. Biochemical Sfp PPTase activity, qHTS. Potency, µM, for the others: max response, negative = inhibition, most hits filed as inhibitors. hit rate 3.5% among 310,000; active = well fitted inhibition curve with a large enough effect; inconclusive = small, poorly fitted or top-dose-only effect, or another doubt; inactive = no such curve, though single readings can be large or run the other way;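 note: the enzyme is Sfp with the accession as filed and its product quenches rhodamine fluorescence; potency is the fitted concentration of half-maximal effect; 0% = enzyme reaction without inhibitor and -100% = no enzyme wells; top concentration of the series not given in the record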
#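 Reaction rates are the 30-min fluorescence difference (ex 525, em 598 nm) in wells containing 15 nM Sfp, 5 uM rhodamine-CoA and 12.5 uM BHQ-2-YbbR at pH 7.6 with 10 mM MgCl2.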
# Menin MLL FP FL = displaces fluorescein MLL peptide from human menin; Fluorescence polarization, fluorescein-MLL peptide displacement from menin; FP activity change, % at 61.4 µM; 290,000 tested, under 10 active; inconclusive = falling polarisation curve, or a change in total fluorescence; inactive = total fluorescence flat and polarisation flat or rising; no compound was filed as active; the % refers to the polarisation; negative = inhibition;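 note: % of control where 0% means no effect; inhibitors lower the polarisation; unlabelled MLL peptide was the positive control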
# TRPML1 blocker = inhibitors of human TRPML1 channel; TRPML1-inducible cells, Ca2+ dye fluorescence, FDSS; hits give low values; inhibition of EC80 agonist-evoked calcium signal; activity change, negative = inhibition, % (no concentration beside the values); hit rate 0.02% among 390,000; Q9GZU1; in the data active means activity change below about -50%; inconclusive means about -30% to -50%; inactive means above about -30%;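 note: stimulus is agonist 54-4 at its EC80 concentration; % is set by controls: 0 for no effect and ±100 for the full control effect; compound concentration not given in the record; the text of the record puts the active cut at -80%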
# Target sequence (Q9GZU1 whole entry, looked up): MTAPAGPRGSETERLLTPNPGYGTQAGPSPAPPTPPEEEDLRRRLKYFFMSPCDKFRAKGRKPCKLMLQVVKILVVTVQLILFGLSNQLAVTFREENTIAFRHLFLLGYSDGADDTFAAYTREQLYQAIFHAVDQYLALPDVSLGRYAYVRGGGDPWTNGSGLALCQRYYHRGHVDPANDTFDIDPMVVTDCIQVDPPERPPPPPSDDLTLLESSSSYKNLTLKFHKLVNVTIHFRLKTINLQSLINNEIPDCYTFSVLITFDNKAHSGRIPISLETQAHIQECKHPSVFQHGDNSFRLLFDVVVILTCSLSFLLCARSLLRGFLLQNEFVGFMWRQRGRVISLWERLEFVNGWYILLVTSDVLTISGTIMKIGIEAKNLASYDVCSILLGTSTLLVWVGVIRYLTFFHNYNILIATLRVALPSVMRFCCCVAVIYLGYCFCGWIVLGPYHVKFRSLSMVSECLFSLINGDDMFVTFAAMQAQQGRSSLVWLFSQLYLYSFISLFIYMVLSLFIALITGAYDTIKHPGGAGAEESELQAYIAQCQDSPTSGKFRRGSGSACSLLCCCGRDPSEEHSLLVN
#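 TRPML1-DL cells, Tet-induced overnight (~16 h, 37 °C) at 1,500 cells/well, were loaded with Ca8 no-wash dye plus quencher for 45-90 min at room temperature. Compounds were pinned during FDSS kinetic reading; agonist 54-4 at EC80 (4 uM final) then added.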
# TRPML1 agonist = activates the human TRPML1 channel; TRPML1-expressing cells, Ca2+ dye fluorescence, FDSS; host cell line not named in the record; reference of the full effect not given here; hit rate 0.12% among 410,000; Q9GZU1; activation, % (no concentration beside the values); AID 624414; in the data active = activation above about 50%; inconclusive = about 30% to 50%; inactive = below about 30%; note: 0% is about no effect; the text of the record puts the active cut at 80%
#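 Tet-induced TRPML1-DL cells, 1,500 per well, cultured overnight, were loaded with a no-wash Ca2+ dye for 45–90 min. Calcium fluorescence was recorded on the FDSS for 110 s after compound addition, before the EC80 agonist (4 uM 54-4) was added.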
# PINK1 expr mod = changes PINK1 expression. PINK1 immunofluorescence, high-content cytometry, 24 h. Potency, µM (doses to about 76.6 µM), without a hit: at the highest dose activation (PINK1 increase), usual class: activators. hit rate 0.2% among 410,000. AID 624263; active = well fitted activation curve with a large enough effect; inconclusive = small, poorly fitted or top-dose-only effect; inactive = flat fitted curve, though single readings scatter; cell line not stated here;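 note: potency is the fitted concentration of half-maximal effect; % of control where 0% means no effect; nearly all actives have a fitted effect of over 65% in size; a mitochondrial uncoupler was the plate control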
#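 Cells are seeded, rested 12 hours, then given compound at five concentrations or DMSO for 24 hours. After fixation, blocking and antibody staining, PINK1 amount and mitochondrial localization are scored; CCCP serves as control.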
# ClpP mod = qHTS Assay for Activators of ClpP; ATP-dependent Clp protease proteolytic subunit (Bacillus subtilis (strain 168)), P80244; purified B. subtilis ClpP, FRET peptide cleavage, 20 min; hit rate 1.9% among 340,000; Potency, µM (highest dose often 57.5 µM), without a hit: top-dose activity change, negative = active; active = well fitted falling curve with a large enough effect; inconclusive = small, poorly fitted or top-dose-only effect; inactive = no such curve, though single readings can be large or run the other way; note: potency is the fitted concentration of half-maximal effect; the source files actives as falling curves though it sought activators and does not explain the sign; nearly all actives have a fitted effect of over 65% in size; many hits overshoot -100%
# Target sequence (P80244 whole entry, looked up): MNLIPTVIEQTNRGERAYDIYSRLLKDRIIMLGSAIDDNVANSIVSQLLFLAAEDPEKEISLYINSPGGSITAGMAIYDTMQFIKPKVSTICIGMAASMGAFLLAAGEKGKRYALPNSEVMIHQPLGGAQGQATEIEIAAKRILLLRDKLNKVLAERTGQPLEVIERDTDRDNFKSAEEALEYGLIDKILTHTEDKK
#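 Buffer: 100 mM Tris/HCl pH8, 100 mM KCl, 0.05% low protease BSA, 2.5% glycerol, 0.01% Tween-20. ClpP 10 microg/mL final; 20 min RT; delta FRET normalized to ADEP and DMSO controls.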
# TRPV1 PAM = enhances activation of the human vanilloid receptor TRPV1; hit rate 0.02% among 320,000; TRPV1-expressing cells, Fluo-8 calcium influx, capsaicin EC20 potentiation; host cell line not named in the record; control for the full effect not named in the record; potentiation, % at 8.33 µM; active means potentiation above 80%; inconclusive means 30% to 80%; inactive means below 30%; note: 0% is about no effect
#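 Fluo-8 calcium influx in TRPV1-expressing cells, kinetic read (ex 480/em 520 nm). Compound added and read 3 min for agonist activity, followed by capsaicin at EC20 final and 2 min further read for enhancement.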
# An asterisk follows results filed as active; ? = inconclusive; . = not tested or not shown; & = joins results of further samples; [ ] = remark or other dose. Compounds were not picked by outcome; about 4.4% have a hit in one of these screens.
SMILES,Sfp inh,Menin MLL FP FL,TRPML1 blocker,TRPML1 agonist,PINK1 expr mod,ClpP mod,TRPV1 PAM
Cc1ccc(S(=O)(=O)N2C[C@H]3C(=O)C[C@@H](c4ccccc4)N(S(=O)(=O)c4ccc(C)cc4)[C@H]3C[C@H]2c2cccc(Cl)c2)cc1,.,.,-5.7,?,1.7%,0.4%,.
O=c1c(Cc2ccccc2)c(O)ccn1C1CCCCCCC1,12.5%,3.1,-11.9,3.9,5.5%,2.4%,0.2
Cc1ccc(C)c(N2C(=O)c3ccc(C(=O)Nc4ccccn4)cc3C2=O)c1,.,.,-13.8,-0.6,-0.2%,-0.2%,.
COc1ccc(-c2nc(CNS(=O)(=O)c3cccc(F)c3)cs2)cc1,.,.,4.9,1.1,-0.4%,?,.
Clc1ccc(SCCOCCN2CCOCC2)cc1,-28.6%,0.5,.,.,1.5%,0.0%,?
COc1ccc(Cl)cc1NC(=O)CN1c2ccccc2S(=O)(=O)c2ccccc21,.,.,1.8,0.6,4.4%,?,.
O=C(COC(=O)c1ccc(Br)o1)NCCCc1ccccc1,6.3%,0.8,16.5,0.1,-2.1%,0.6%,-6.4
CCn1c(=O)cc(SCC(=O)N2CCN(C)CC2)c2ccccc21,4.5%,1.2,6.3,1.5,0.2%,?,4.3
O=C(CN1C(=O)c2cccnc2Oc2ccc(Cl)cc21)NC1CCCCCC1,1.7%,-1.2,-6.0,-0.5,1.9%,-0.6%,5.9
CCc1ccccc1NC(=O)CSc1nnc(-c2ccccc2)c(-c2ccccc2)n1,.,.,0.5,3.2,0.4%,0.9%,.
N#CC1=C(S)N(c2ccccc2)C(c2ccco2)NC1=O (configuration not stated),?,3.0,-2.5,0.4,0.2%,.,-11.9
COc1ccc(CNc2nc(-c3ccco3)nn2S(=O)(=O)c2ccc3ccccc3c2)cc1OC,.,.,-7.0,0.9,0.6%,-0.2%,.
CC(=O)Nc1c(Br)cc2c(c1Br)C(=O)c1ccccc1-2,.,.,1.2,0.4,-2.8%,1.8%,.
S=c1[nH]nc(Nc2cccc(Cl)c2)s1,39.8µM*,-1.4,-7.8,0.6,0.1%,-2.8%,4.9
Cc1cccc2[nH]c3c(N4CCC5(CC4)OCCO5)ncnc3c12,?,0.8,-10.3,0.2,6.1%,?,-15.5
CC(C)(C)c1ccc(-c2nc(N)nc(N)n2)cc1,14.4%,1.4,22.4,0.4,5.4%,-1.0%,-2.5
O=C(CSc1ncccc1C(=O)Oc1ccccc1Cl)Nc1ccccc1Cl,.,.,16.3,3.0,0.9%,-6.4%,1.5
O=S(=O)(NCc1ccccc1)c1ccc(Br)s1,12.1%,-3.6,-5.7,1.6,1.9%,-3.6%,4.3
O=C(CCS(=O)(=O)c1cccs1)Nc1ccc(C(=O)Nc2ccccc2F)cc1,.,.,-12.5,0.7,3.9%,1.1%,.
CN(C)NC(=O)c1ccsc1NC(=O)c1ccc(S(=O)(=O)N2CCCC2)cc1,18.9%,4.9,-12.2,-0.2,1.3%,.,1.5

# Record cards (already shown).
# `CCc1ccccc1NC(=O)CSc1nnc(-c2ccccc2)c(-c2ccccc2)n1` is listed with Sfp inh: .; Menin MLL FP FL: .; TRPML1 blocker: 0.5; TRPML1 agonist: 3.2; PINK1 expr mod: 0.4%; ClpP mod: 0.9%; TRPV1 PAM: .
# `Cc1ccc(C)c(N2C(=O)c3ccc(C(=O)Nc4ccccn4)cc3C2=O)c1` is listed with Sfp inh: .; Menin MLL FP FL: .; TRPML1 blocker: -13.8; TRPML1 agonist: -0.6; PINK1 expr mod: -0.2%; ClpP mod: -0.2%; TRPV1 PAM: .

# Continued.
SMILES,Sfp inh,Menin MLL FP FL,TRPML1 blocker,TRPML1 agonist,PINK1 expr mod,ClpP mod,TRPV1 PAM
CCC1CN(C(=O)N2CCC(C(=O)N3CCN(c4cccc(C)c4C)CC3)CC2)c2ccccc2O1 (configuration not stated),.,.,-3.9,4.7,19.3%,1.1%,.
COc1ccc(N2CCN(C(=O)c3c(C)nn(-c4ccc(F)cc4)c3-n3cccc3)CC2)cc1,.,.,-8.5,2.4,3.5%,2.0%,.
CN(CC(=O)O)S(=O)(=O)/C=C/c1ccccc1,18.6%,-1.0,-14.2,0.2,1.0%,.,23.1
CCN(C(=O)Cn1c(=O)oc2cc(Cl)ccc21)c1cccc(C(F)(F)F)c1,.,.,-11.4,-0.8,-3.1%,-0.3%,.
CC(C)CCNC(=O)c1ccc2c(c1)NC(=O)C(CS(=O)(=O)Cc1ccc(F)cc1)N2 (configuration not stated),.,.,0.4,-0.4,-1.5%,-23.0%,.
Cc1cc2nc(N3CCN(C(=O)c4cccs4)CC3)sc2cc1C,.,.,2.8,-0.9,15.2%,.,18.0
CCCCCC(=O)NNC(=O)Cc1ccc([N+](=O)[O-])cc1,3.7%,-4.3,49.5,-0.9,1.3%,.,1.6
CCC(C)Nc1nc(OCC(F)(F)F)nc(OCC(F)(F)F)n1 (configuration not stated),16.7%,1.5,27.1,2.0,7.3%[38.3 µM],0.2%,7.0
CCCCCC1CC(/C(C)=N/NC(N)=O)OC1=O (configuration not stated),3.6%,0.2,-11.9,-0.7,1.0%,2.0%,-3.0
Cc1ccc2c(c1)cc(CN(Cc1ccco1)C(=O)COc1ccccc1)c1nnnn12,-0.2%,2.5,17.8,4.4,-1.6%,-10.3%,4.3
Brc1ccc(-c2cnc(-c3cccs3)o2)cc1,-23.4%,-6.1,2.8,0.5,4.8%,31.6µM*,-6.8
COc1cc(Cl)ccc1OCc1cc(C(=O)N2CCCC(OC)C2)no1 (configuration not stated),10.8%,.,-10.3,0.1,4.4%,0.8%,-3.0
COc1cc2ccc(C=O)cc2cc1OC,.,.,2.7,-0.4,0.3%,-14.0%,.
CCc1cc(-c2nnc(SCC(=O)NC3CC3)n2C)cs1,15.2%,.,-24.0,0.0,-1.1%,.,5.6
COc1ccc(NS(=O)(=O)c2cccc(C(=O)NCCCn3ccnc3)c2)cc1,.,.,-6.9,-0.8,0.4%,-0.7%,-2.6
CCCOc1ccc(/C=N\NC(=O)CCc2n[nH]c(=O)[nH]c2=O)cc1OC,8.5%,-4.1,-0.6,-0.5,-0.8%,.,-2.7
COc1cc(OC)c2ccc(=O)oc2c1C(CCN1CCCCC1)c1ccc(N(C)C)cc1 (configuration not stated),-16.2%&-7.1%,-3.7&-8.3,5.1&-10.5,0.9&-0.2,-0.1%,-5.3%,-3.4
COc1ccc(-c2onc(C)c2C)cc1S(=O)(=O)NCCc1ccco1,4.9%,.,-7.4,-1.2,3.1%,-3.0%,2.2
CCc1ccc(NC2=NCC(c3ccccc3)S2)cc1 (configuration not stated),-17.6%,-0.8,-0.7,-0.4,?,.,-6.6
COc1ccc(C(C(=O)NC2CCCCC2)N(C(=O)c2snc(C(N)=O)c2N)c2ccc(OC)cc2OC)cc1 (configuration not stated),8.3%,-10.2,16.1,0.9,-0.1%,.,17.2
O=C(NCc1ccncc1)C(=O)NCC(c1ccccc1)c1ccccc1,-10.2%,3.1,.,.,.,.,-22.7
COc1ccc(S(=O)(=O)N2CCCC2)c2ccccc12,12.2%,2.5,24.6,0.8,4.3%,.,?
COc1ccc(-c2cc(C(=O)Nc3ccc(C)cc3)no2)cc1,11.3%,4.2,-4.6,0.2,?,?,17.3
CCCc1cc(=O)oc2c(CNc3ccc(OCC)cc3)c(O)ccc12,-2.1%,19.8,-12.1,1.6,2.4%,3.3%,8.1
CCn1c(SCC(=O)NCCOC)nc2sc3c(c2c1=O)CCCC3,-3.2%,3.2,-10.6,1.4,-2.1%[38.3 µM],-0.1%,-23.9
COc1cc(OC)cc(C(=O)Nc2nc3ccc(S(C)(=O)=O)cc3s2)c1,5.3%,6.1,-11.1,-0.3,5.6%,.,2.9
O=C(Nc1ccc(Cl)c(Cl)c1)Nc1ccc(N2CCCC2)c(S(=O)(=O)Nc2ccccc2Cl)c1,20.7%,8.4,-13.0,-0.3,?,-10.4%,-3.2
C#CCOCCOCCOCCNc1nc(N2CCN(C(=O)[C@H](CCC(=O)O)n3cc(C(N)Cc4ccc(O)cc4)nn3)CC2)nc(N2CCN(C(=O)[C@H](Cc3ccc(O)cc3)n3cc(C(N)CC(C)C)nn3)CC2)n1 (some centres not stated),-1.2%,1.4,.,.,.,.,-5.5
COc1ccc(-c2nc(N)n(C(=O)c3ccccc3)n2)cc1,5.2%,-2.0,-5.0,0.1,0.2%,.,11.5
CCOc1ccc(NC(=O)CN2CCCC2c2cccs2)cc1S(=O)(=O)N1CCCC1 (configuration not stated),.,.,24.2,4.1,-0.1%,0.7%,2.1
S=c1[nH]nc(-c2cc(-c3ccccc3)n[nH]2)n1/N=C/c1cccs1,3.6%,-0.2,8.6,4.5,0.4%,.,.
Cn1c(=O)c2c(nc(Br)n2C)n(C)c1=O,16.8%,1.2,-4.2,-0.3,3.5%,-1.6%,-1.6
CCOC(=O)c1c(NC(=O)c2ccc(S(=O)(=O)N(C)CC3CCCO3)cc2)sc2c1CC(C)(C)NC2(C)C (configuration not stated),3.4%,-1.4,7.4,0.0,20.3%,0.9%,1.4
Cc1ccc(Nc2nc(N)c([N+](=O)[O-])c(N3CCCC(C)C3)n2)cc1C (configuration not stated),11.4%,-0.5,-0.9,-1.0,-2.7%,-2.1%,-0.6
Cc1ccccc1OCC(O)CN1CCN(c2ccc(Cl)cc2)CC1 (configuration not stated),?,11.7,5.4,1.7,1.8%,-0.5%,3.7
COCCCNC(=O)C1CC(=O)OC1c1ccc(OC)c(OC)c1 (configuration not stated),1.4%,4.9,6.9,1.0,-1.4%,-3.3%,0.7
Cn1nc(-c2ccc(C(=O)Nc3cccnc3)cc2)c2ccccc2c1=O,2.6%,-1.1,19.7,3.4,12.5%,-6.4%,-1.4
CN(C)c1ccc(-c2cccc(C3CC=CC4C3C(=O)N(Cc3ccccc3)C4c3ccc4ccccc4c3)c2)cc1 (configuration not stated),3.9%&14.7%,6.1&0.3,10.3&8.0,-0.1&0.1,-0.3%,3.9%,?
CCOC(=O)C1=C(Nc2ccccc2)CC(C)(O)C(C(=O)OCC)C1c1ccc(Cl)cc1 (configuration not stated),4.7%,22.1,3.9&2.4,3.0&0.4,13.0%&6.3%,-3.2%&-8.0%,-1.2
Cc1nc(N)c(C#N)c(-c2cccnc2)c1C,22.3%,0.8,-15.7,1.7,-0.5%,-12.2%,11.5
